Source: PubChem BioAssay
TRPML1 agonist = human mucolipin-1 channel agonism | TRPML1-expressing cells, Ca2+ dye fluorescence, FDSS; host cell line not named in the record; reference of the full effect not given here | Q9GZU1 | AID 624414 | activation, % (concentration not given with the values) | 0.12% of 410,000 active; in the data active = activation above about 50%; inconclusive = about 30% to 50%; inactive = below about 30%; also: 0% is about no effect; the text of the record puts the active cut at 80%
Target sequence (Q9GZU1 whole entry, looked up): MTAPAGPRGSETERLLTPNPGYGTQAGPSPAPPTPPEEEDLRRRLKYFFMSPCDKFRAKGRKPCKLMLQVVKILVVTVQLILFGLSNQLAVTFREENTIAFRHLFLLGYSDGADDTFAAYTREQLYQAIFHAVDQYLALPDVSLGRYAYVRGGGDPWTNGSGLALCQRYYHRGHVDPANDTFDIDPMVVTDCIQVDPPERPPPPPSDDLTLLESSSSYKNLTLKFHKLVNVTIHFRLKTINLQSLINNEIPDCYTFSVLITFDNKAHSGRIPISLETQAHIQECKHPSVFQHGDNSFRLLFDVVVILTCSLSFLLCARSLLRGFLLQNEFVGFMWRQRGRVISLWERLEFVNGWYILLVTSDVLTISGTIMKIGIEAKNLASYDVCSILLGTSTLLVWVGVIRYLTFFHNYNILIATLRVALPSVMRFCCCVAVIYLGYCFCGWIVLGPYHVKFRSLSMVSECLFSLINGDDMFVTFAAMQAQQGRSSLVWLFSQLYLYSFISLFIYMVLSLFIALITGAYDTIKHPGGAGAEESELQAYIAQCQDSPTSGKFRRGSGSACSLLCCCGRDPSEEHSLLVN
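TRPML1-DL cells, Tet-induced overnight (~16 h, 37 degrees C), loaded 45-90 min at room temperature with Ca8 no-wash calcium dye plus quencher. FDSS fluorescence: 10 s baseline, compound pin-transfer, 110 s agonist read, then EC80 54-4 (4uM final) and 110 s antagonist read.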
TRPML1 inh = inhibitors of human TRPML1 channel; Q9GZU1; TRPML1-inducible cells, Ca2+ dye fluorescence, FDSS; stronger effect = lower value; inhibition of EC80 agonist-evoked calcium signal; activity change, negative = inhibition, % (concentration not given with the values); 0.02% of 390,000 active; AID 624415; in the data active means activity change below about -50%; inconclusive means about -30% to -50%; inactive means above about -30%;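 also: stimulus is agonist 54-4 at its EC80 concentration; % is scaled to controls: 0 for no effect and ±100 for the full control effect; compound concentration not given in the record; the text of the record puts the active cut at -80%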
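Calcium fluorescence in TRPML1-DL cells induced overnight with Tet: a 110 s read after compound pin addition, then a 110 s antagonist read after challenge with 54-4 at 4 uM final (EC80).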
TRPV1 PAM = human TRPV1 potentiation | TRPV1-expressing cells, Fluo-8 calcium influx, capsaicin EC20 potentiation; host cell line not named in the record; control for the full effect not named in the record | Q8NER1 | potentiation, % at 8.33 µM | 0.02% of 320,000 active; active means potentiation above 80%; inconclusive means 30% to 80%; inactive means below 30%; also: 0% is about no effect
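Cells expressing TRPV1 were dye-loaded with Fluo-8 and read kinetically: 10 s baseline, 3 min after compound (agonist portion), then 2 min after EC20 capsaicin (allosteric enhancer portion). Calcium-bound dye fluorescence at 480/520 nm.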
PINK1 expr mod = changes PINK1 expression. PINK1 immunofluorescence, high-content cytometry, 24 h. Potency, µM (series often up to 76.6 µM), for inactives: at the top dose activation (PINK1 increase), most hits filed as activators. 0.2% of 410,000 active; active = well fitted activation curve with a large enough effect; inconclusive = small, poorly fitted or top-dose-only effect; inactive = flat fitted curve, though single readings scatter; cell line not stated here;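 also: potency is read from the fitted curve at half-maximal effect; % of control where 0% means no effect; nearly all actives have a fitted effect of over 65% in size; a mitochondrial uncoupler was the plate control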
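Fluorescence from anti-PINK1 antibody, together with nuclear and cell stains, was scanned on a laser-scanning cytometer. Before staining, stable-line cells were incubated 24 hours with compounds at 5 concentrations; primary antibody 12 h at 10 degrees C.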
Menin-MLL FL inh = menin-MLL binding inhibition, fluorescein peptide. Fluorescence polarization, fluorescein-MLL peptide displacement from menin. 290,000 tested, under 10 active. FP activity change, % at 61.4 µM; inconclusive = falling polarisation curve, or a change in total fluorescence; inactive = total fluorescence flat and polarisation flat or rising; no compound was filed as active; the % refers to the polarisation; negative = inhibition;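 also: % of control where 0% means no effect; inhibitors lower the polarisation; unlabelled MLL peptide was the positive control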
Sfp inh = blocks B. subtilis Sfp PPTase activity; 3.5% of 310,000 active; Potency, µM, inactives show max response, negative = inhibition, usual class: inhibitors; Q9F4F7; Biochemical Sfp PPTase activity, qHTS; active = well fitted inhibition curve with a large enough effect; inconclusive = small, poorly fitted or top-dose-only effect, or another doubt; inactive = no such curve, though single readings can be large or run the other way;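 also: the enzyme is Sfp with the accession as filed and its product quenches rhodamine fluorescence; potency is read from the fitted curve at half-maximal effect; 0% = enzyme reaction without inhibitor and -100% = no enzyme wells; top concentration of the series not given in the record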
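Compounds were incubated with enzyme (final 15 nM) for 15 min at room temperature before substrate addition started the reaction. Fluorescence at 525 nm excitation, 598 nm emission was recorded immediately and after 30 minutes.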
ClpP mod = qHTS Assay for Activators of ClpP; purified B. subtilis ClpP, FRET peptide cleavage, 20 min; Potency, µM (highest dose often 57.5 µM), without a hit: at the highest dose activity change, negative = active; 1.9% of 340,000 active; AID 651965, 2013; active = well fitted falling curve with a large enough effect; inconclusive = small, poorly fitted or top-dose-only effect; inactive = no such curve, though single readings can be large or run the other way; also: potency is read from the fitted curve at half-maximal effect; the source files actives as falling curves though it sought activators and does not explain the sign; nearly all actives have a fitted effect of over 65% in size; many hits overshoot -100%
Target sequence (P80244 whole entry, looked up): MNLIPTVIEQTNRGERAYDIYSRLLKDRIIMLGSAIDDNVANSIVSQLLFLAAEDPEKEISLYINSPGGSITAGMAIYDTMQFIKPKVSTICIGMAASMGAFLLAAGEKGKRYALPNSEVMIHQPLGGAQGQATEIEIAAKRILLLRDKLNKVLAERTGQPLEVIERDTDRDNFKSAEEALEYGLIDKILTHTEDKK
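FRET quenching reversal measured ClpP activation: 10 microg/mL B. subtilis ClpP at pH 8 with the FRET-FV decapeptide, read at 430 nm after 320 nm excitation. The 20-min minus 0-min signal was scaled between DMSO/no-enzyme wells and ADEP (5.8 microM final).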
* hit, by the source's call; ? = inconclusive; . = not tested or not shown.

SMILES	TRPML1 agonist	TRPML1 inh	TRPV1 PAM	PINK1 expr mod	Menin-MLL FL inh	Sfp inh	ClpP mod
CCOC(=O)C1=C(c2ccccc2)Nc2c(c(=O)n(C)c(=O)n2C)C1c1ccc(O)c(OC)c1 (configuration not stated)	0.8	-6.7	0.1	0.2%	4.7	12.1%	-3.4%
O=C(c1ccccn1)C1CCCN(Cc2nc(Cc3cccc(F)c3)no2)C1 (configuration not stated)	0.5	11.5	-5.9	1.9%	2.0	-1.7%	.
OCC1(CCOc2ccccc2)CCN(C2Cc3ccccc3C2)CC1	0.9	5.0	9.9	2.7%	0.8	5.5%	-2.6%
CCc1ccccc1NC(c1nnc(-c2cccc(F)c2)o1)c1ccc(F)cc1Cl (configuration not stated)	0.0	-5.1	.	-0.2%	.	.	-4.4%
Oc1ccccc1N1CCN(c2nc(-c3cccs3)nc3ccccc23)CC1	0.2	-18.1	3.1	1.9%	2.3	-0.5%	0.5%
CCOC(=O)CCC(=O)Nc1cccc([N+](=O)[O-])c1	0.0	18.2	5.7	1.1%	-0.2	6.9%	-0.4%
COc1ccc(/C=C(/C#N)c2nc(-c3cc4ccccc4oc3=O)cs2)cc1	-0.9	-0.8	.	0.8%	.	.	2.3%
Cc1cc(Nc2ccccc2C)c2cccc(C)c2n1	-0.9	7.0	.	2.9%	.	.	1.0%
CCOC(=O)c1c(NC(=O)COC(=O)Cn2cnc3ccccc32)sc(C)c1C	-0.7	-1.5	8.5	-1.3%	4.7	2.4%	-17.7%
CC1(C(=O)OCC(=O)Nc2ccc(Cl)cn2)CC1(Cl)Cl (configuration not stated)	-0.7	-3.1	.	5.4%	.	.	-3.4%
O=C(CC1SC(=O)N(Cc2ccc(Cl)cc2)C1=O)Nc1nccs1 (configuration not stated)	1.4	-0.3	-10.4	?	0.1	0.5%	-0.8%
O=C1[C@H](Cc2ccccc2)NCC=CC[C@H](c2ccc(Cl)cc2)N1Cc1ccccc1	-0.1	56.3	.	?	.	.	-0.1%
CCN1C(=O)/C(=C2\SC(N3CCOCC3)=NC2=O)c2ccccc21	1.1	16.5	-10.9	-2.9%	-5.1	12.7%	0.6%
COC(=O)Cn1cc(/C=C(/C#N)C(=O)N2CCOCC2)c2ccccc21	-0.3	-13.4	3.1	3.5%	0.1	1.9%	1.1%
COc1ccc(OCC(=O)N2CCN(C(=O)c3ccco3)CC2)cc1	2.3	5.5	-3.6	-2.8%	2.7	11.6%	0.8%
COC(=O)[C@H](C)NC(=O)Nc1ccc(S(N)(=O)=O)cc1	0.3	6.3	-17.4	?	2.2	15.2%	0.1%
CC(C)C1COC(c2cccc3ccccc23)=N1 (configuration not stated)	1.0	26.1	1.4	4.9%	2.6	-29.3%	-26.3%
CSc1nc(N2CCOCC2)c2c(c1C#N)CC(C)(C)OC2	0.2	-6.8	-15.4	0.3%	-0.7	16.8%	-5.9%
CNC(=O)c1ccc2c(c1)N(Cc1cc(C)ccc1C)C(=O)c1ccccc1S2	5.2	7.9	.	0.1%	.	.	0.7%
Cc1ccc(-c2nc(-c3ccccn3)no2)cc1[N+](=O)[O-]	3.9	31.3	-11.3	8.0%	2.0	3.8%	0.0%
COc1ccc(/C=C2/Sc3ccc(C(=O)NCCCN4CCOCC4)cc3NC2=O)cc1OC	-0.7	12.2	-4.1	-0.3%	2.0	-2.8%	.
CN1CCN(S(=O)(=O)c2ccc(NC(=O)c3ccco3)cc2)CC1	0.9	36.0	2.5	-0.3%	?	10.0%	-0.3%
COc1ccc(-c2nc3c4ccccc4ccn3c2CN2CCOCC2)cc1OC	0.0	4.9	-11.0	1.3%	1.8	-5.4%	3.8%
COCCn1c(N)c(N(Cc2ccccc2)C(=O)c2cc3ccccc3o2)c(=O)[nH]c1=O	-0.1	-5.5	?	0.3%	-4.3	6.2%	-0.1%
Cc1cc(C)cc(-c2nc(-c3ccncc3)no2)c1	-0.8	-0.3	-2.5	11.5%	4.0	19.9%	-0.1%
COc1ccccc1N1CCN(CCCNC(=O)Nc2ccccc2)CC1	0.9	21.1	-2.6	6.6%	5.2	1.8%	0.9%
Nc1c(-c2nc(-c3ccccc3)no2)nnn1CC(=O)Nc1cccc(F)c1	0.6	-12.5	.	1.8%	.	.	2.5%
O=C(Nc1ccc(S(=O)(=O)N2CCOCC2)cc1)C1CCCCC1	-0.7	17.0	-1.0	1.3%	-1.5	9.1%	-1.0%
CCCCN(CC)C(=O)c1ccccc1Oc1ccccc1	0.2	3.7	-26.4	-2.5%	4.3	-17.7%	-2.1%
Cc1ccccc1C(=O)OC1OC(=O)C(Cl)=C1Nc1ccccc1 (configuration not stated)	1.7	44.9	-6.5	5.1%	-2.1	-36.0%	.
COc1ccc(N2CCN(C(=O)C(CC(C)C)NS(=O)(=O)c3ccc4nc(C)sc4c3)CC2)cc1 (configuration not stated)	1.3	24.6	.	0.6%	.	.	-5.3%
C[C@@H]1CN([C@@H](C)CO)C(=O)CCCn2nncc2CO[C@@H]1CN(C)S(=O)(=O)c1ccc2ccccc2c1	1.1	2.2	.	-0.7%	.	.	-1.5%
Cc1ccc(C)c(OCc2cc(C(=O)N3CCN(c4ccccc4)CC3)no2)c1	1.1	-3.4	-15.8	5.5%	.	-9.0%	-0.2%
COc1ccc(CNC(=O)c2cccnc2SC)cc1OC	0.1	71.6	3.4	-2.0%	-5.6	19.4%	2.5%
COc1ccc(-c2nc3c(c(SCC(=O)N(C)c4ccccc4)n2)Cc2cc(C)ccc2O3)cc1	-0.6	24.4	.	-1.6%	.	.	-1.5%
COc1ccccc1CNC(=O)Cn1ccc2cc(S(=O)(=O)N3CCCC3)ccc21	1.0	31.9	-7.0	0.6%	2.3	23.1%	-1.4%
O=C(NC1=NCCS1)c1sc2cc(F)ccc2c1Cl	0.0	42.4	6.9	-2.8%	1.8	-18.3%	-29.9%
COc1cccc(-c2nc(Nc3ccncc3)c3ccccc3n2)c1	.	.	.	2.8%	?	?	.
Cn1c(NC(=O)/C=C/c2ccccc2)cc(=O)n(C)c1=O	4.2	12.9	-2.4	16.0%	5.3	21.1%	-1.5%
COc1ccc(C(CNC(=O)c2ccc(NS(=O)(=O)c3ccc(F)c(C)c3)cc2)N(C)C)cc1 (configuration not stated)	-0.2	3.4	3.4	-0.9%	.	.	-15.0%
Clc1ccc(CNc2nc(N3CCOCC3)nc(N3CCOCC3)n2)cc1	0.0	8.7	-7.9	1.3%	1.4	2.5%	0.6%
C=CCN1CCc2c(cc(O)c(O)c2Br)[C@@H](c2ccccc2)C1	0.3	-6.2	.	1.9%	1.2	-14.5%	-0.3%
Cc1ccn(C)c(=N)c1	2.6	-21.5	-5.5	8.0%	5.9	-8.2%	-6.1%
O=C(OCCc1cc2ccccc2c(=O)o1)c1ccc(C(F)(F)F)cc1	0.0	0.2	8.3	1.1%	.	.	9.4%
O=C(COC(=O)/C=C/c1cccc(C(F)(F)F)c1)NC1CCCCCC1	-0.1	-6.6	-0.8	-0.1%	.	.	-0.1%
Nc1c(C(=O)N/N=C/c2ccc([N+](=O)[O-])cc2)sc2nnc(-c3ccccc3)c(-c3ccccc3)c12	1.2	7.1	?	1.6%	18.3	-7.3%	0.8%
COC(=O)c1ccccc1NC(=O)Cn1ncc2c(C)n(Cc3ccc(F)cc3)c(C)c2c1=O	0.6	-7.8	.	0.1%	.	.	?
CCN(CC)S(=O)(=O)c1ccc(C)c(NC(=O)COC(=O)c2ccc(C)c(S(=O)(=O)N3CCOCC3)c2)c1	0.3	11.0	6.5	.	4.2	13.3%	0.7%
COc1ccc(C(=O)c2c[nH]c(C(=O)NCc3cccnc3)c2)cc1	-0.9	6.8	.	3.1%	1.9	7.4%	-2.7%
COc1ccc(S(=O)(=O)NCCc2ccccc2)c2cccnc12	1.4	2.7	3.3	0.2%	-0.6	7.7%	4.0%

Carrying on.
SMILES	TRPML1 agonist	TRPML1 inh	TRPV1 PAM	PINK1 expr mod	Menin-MLL FL inh	Sfp inh	ClpP mod
CCCCNC(=S)Nc1cccc(C(C)=O)c1	0.5	39.5	-14.5	1.8%	3.8	5.6%	-6.4%
O=C(c1ccc(N2CCN(C(=O)c3ccc(F)cc3F)CC2)cc1)c1cccc(F)c1	0.3	3.2	-27.0	-1.8%	.	-2.0%	-2.9%
CCOC(=O)C1CCN(c2ncnc3cc(OC)c(OC)cc23)CC1	0.2	-4.8	7.5	1.1%	3.3	26.0%	.
Cc1cc(-c2ccc(C)c(S(=O)(=O)N(C)c3ccc(C)c(C)c3)c2)on1	0.3	1.3	.	2.1%	.	.	0.2%
COC(=O)C(C)(C(=O)OC)c1ccc([N+](=O)[O-])cn1	-0.4	-14.8	-3.3	-1.2%	-1.8	9.1%	-2.4%
CNS(=O)(=O)c1cccc(C(=O)OCc2cc(C(C)=O)ccc2OC)c1	-0.4	31.6	14.3	0.7%	2.3	18.1%	.
CCCNc1ncnc2[nH]ncc12	0.1	-0.3	.	0.3%	.	.	.
O=C(Nc1ncc([N+](=O)[O-])s1)C1COc2ccccc2O1 (configuration not stated)	0.2	12.8	0.8	44.7µM*	.	-25.4%	-1.3%
CCCn1c(SCC(=O)Nc2nc(C)c(C(=O)OC)s2)nnc1C(C)C	0.5	-13.3	-15.2	-1.0%	1.6	11.0%	0.7%
Cc1ccc(CN2CCSc3ccc(C(=O)N4CCN(c5ccccc5)CC4)cc32)cc1	0.1	17.8	.	1.6%	.	.	?
COc1ccc(-c2c3c(=O)n(C)c(=O)n(C)c3cn2-c2cc(OC)ccc2OC)cc1	-0.9	49.6	-12.9	2.8%	0.2	-11.4%	28.2µM*
Cc1cc(C)c(CN2CCN(C(=O)Cn3cnc4c(NCc5ccccc5)ncnc43)CC2)c(C)c1	0.4	29.2	.	2.7%	.	.	0.6%
CC[C@H](C)[C@H]1CNC(=O)C(=O)N1CC1CCN(CCCc2ccc(OC)c(OC)c2)CC1	0.1	-20.3	.	0.7%	.	.	-2.4%
COC(=O)c1ccc2c(=O)n3nc(Nc4cc(OC)ccc4OC)sc3nc2c1	1.4	-24.4	.	-0.4%	.	.	0.4%
O=C(CSc1n[nH]c(-c2ccccc2)n1)Nc1ccccc1O	1.9	17.9	14.0	0.1%	-1.4	8.8%	1.0%
COC(=O)Cc1ccc(NC(=S)NCc2ccc(Cl)cc2)cc1	1.0	12.3	?	-0.1%	-1.8	2.8%	-11.6%
CCCOc1ccc(NC(=O)CC2C(=O)N(c3ccccc3)C(=O)N2Cc2ccc(F)cc2)cc1 (configuration not stated)	3.5	3.7	.	6.7%	.	.	-0.7%
Cc1nc(C(=O)NNC(=O)c2ccccc2)c(C(F)(F)F)o1	0.7	3.1	6.0	1.5%	1.1	44.7µM*	.
